Assay outcomes from PubChem BioAssay.
Vaccinia stage – Vaccinia orthopox stage-specific inhibition; Vaccinia-infected cells, mCherry/Venus stage reporter fluorescence; hits give low values; some inactives read as strong as hits; activity change (mCherry), % (no concentration beside the values); 89,000 tested, 0.01% active; AID 1053133;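 active = mCherry past -33% and 40 or more points under the early reporter, replicates agreeing; inconclusive = past -33% without that gap or agreement; tested in A549 cells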;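 also: scaled between vehicle wells and reference inhibitor wells; 23 nL library stock went into each well; one replicate is shown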
Vaccinia stage Venus – also measured in Vaccinia stage; calls as there; activity change (Venus), %; measured here: Venus reporter, other viral stage;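 negative = less Venus signal; first of two replicates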
* = called active by the depositor. Not all compounds are listed (hit frequency here may not be typical).

How did C[C@H](CO)N1C[C@H](C)[C@@H](CN(C)C(=O)Nc2cccc3ccccc23)Oc2c(NS(=O)(=O)c3ccc(Cl)cc3)cccc2C1=O do in these assays?
Vaccinia stage: -6; Vaccinia stage Venus: -7

How did CO[C@@H]1CN(C)C(=O)c2cc(NC(=O)C3CC3)ccc2OC[C@H](C)N(Cc2cccc(F)c2)C[C@H]1C do in these assays?
Vaccinia stage: -19; Vaccinia stage Venus: -9

How did Cc1noc(C)c1NC(=O)N(C)C[C@H]1Oc2ccc(NS(=O)(=O)c3ccccc3)cc2C(=O)N([C@@H](C)CO)C[C@@H]1C do in these assays?
Vaccinia stage: 4; Vaccinia stage Venus: 18

Results for C[C@H](CO)N1C[C@H](C)[C@H](CN(C)Cc2ccccc2)Oc2ccc(NC(=O)NC3CCCCC3)cc2C1=O ?
Vaccinia stage: 0; Vaccinia stage Venus: 9

How did C[C@@H]1CN([C@H](C)CO)C(=O)Cc2cc(NS(=O)(=O)c3ccc(F)cc3)ccc2O[C@@H]1CN(C)S(=O)(=O)c1cccs1 do in these assays?
Vaccinia stage: 3; Vaccinia stage Venus: 3

What do the screens show for `C[C@@H]1CN([C@@H](C)CO)C(=O)c2cc(C#CC3CCCC3)cnc2O[C@H]1CN(C)C(=O)C1CCC1`?
Vaccinia stage: -21; Vaccinia stage Venus: -18

What do the screens show for `C[C@@H]1CN([C@H](C)CO)C(=O)Cc2cc(NC(=O)NC3CCCCC3)ccc2O[C@H]1CN(C)C(=O)NC1CCCCC1`?
Vaccinia stage: 17; Vaccinia stage Venus: 12

What do the screens show for `CO[C@H]1CN(C)C(=O)c2ccc(NC(C)=O)cc2OC[C@@H](C)N(Cc2ccccc2F)C[C@H]1C`?
Vaccinia stage: -24; Vaccinia stage Venus: -15

How did C/C=C/c1cccc(-c2nc(C(=O)N3CCN(C)CC3)cc3c2[C@H](CCO)N(C(=O)NC(C)C)C3)c1 do in these assays?
Vaccinia stage: 9; Vaccinia stage Venus: 11

What do the screens show for `C[C@@H]1CN([C@H](C)CO)C(=O)c2cccc(NC(=O)c3nc4ccccc4s3)c2O[C@@H]1CN(C)Cc1ccc(C(F)(F)F)cc1`?
Vaccinia stage: -10; Vaccinia stage Venus: -11

How did CCCC#Cc1ccc([C@@H]2[C@H](CO)N3CCCCN(S(=O)(=O)c4ccccc4C)C[C@@H]23)cc1 do in these assays?
Vaccinia stage: inconclusive

Results for CN1CCN(C(=O)C[C@H]2CC[C@H]3[C@@H](COC[C@@H](O)CN3C(=O)C3CCCC3)O2)CC1 ?
Vaccinia stage: 10; Vaccinia stage Venus: 10

How did C/C=C/c1ccc([C@H]2[C@H](CO)N3C(=O)CN(C(=O)Nc4ccc(OC)cc4)C[C@@H]23)cc1 do in these assays?
Vaccinia stage: -12; Vaccinia stage Venus: -10

What do the screens show for `C[C@@H]1CN([C@@H](C)CO)C(=O)c2cc(NC(=O)CCC(F)(F)F)ccc2O[C@H]1CN(C)CC1CCCCC1`?
Vaccinia stage: -1; Vaccinia stage Venus: -7

How did COc1ccc(NC(=O)Nc2ccc3c(c2)CC(=O)N([C@H](C)CO)C[C@@H](C)[C@H](CN(C)C(=O)NC(C)C)O3)cc1 do in these assays?
Vaccinia stage: 18; Vaccinia stage Venus: 22

Compounds listed so far with a halogen (6):
How did C[C@H](CO)N1C[C@H](C)[C@@H](CN(C)C(=O)Nc2cccc3ccccc23)Oc2c(NS(=O)(=O)c3ccc(Cl)cc3)cccc2C1=O do in these assays?
Vaccinia stage: -6; Vaccinia stage Venus: -7

How did CO[C@@H]1CN(C)C(=O)c2cc(NC(=O)C3CC3)ccc2OC[C@H](C)N(Cc2cccc(F)c2)C[C@H]1C do in these assays?
Vaccinia stage: -19; Vaccinia stage Venus: -9

How did C[C@@H]1CN([C@H](C)CO)C(=O)Cc2cc(NS(=O)(=O)c3ccc(F)cc3)ccc2O[C@@H]1CN(C)S(=O)(=O)c1cccs1 do in these assays?
Vaccinia stage: 3; Vaccinia stage Venus: 3

What do the screens show for `CO[C@H]1CN(C)C(=O)c2ccc(NC(C)=O)cc2OC[C@@H](C)N(Cc2ccccc2F)C[C@H]1C`?
Vaccinia stage: -24; Vaccinia stage Venus: -15

What do the screens show for `C[C@@H]1CN([C@H](C)CO)C(=O)c2cccc(NC(=O)c3nc4ccccc4s3)c2O[C@@H]1CN(C)Cc1ccc(C(F)(F)F)cc1`?
Vaccinia stage: -10; Vaccinia stage Venus: -11

What do the screens show for `C[C@@H]1CN([C@@H](C)CO)C(=O)c2cc(NC(=O)CCC(F)(F)F)ccc2O[C@H]1CN(C)CC1CCCCC1`?
Vaccinia stage: -1; Vaccinia stage Venus: -7

The list goes on:
How did O=C(C[C@@H]1CC[C@@H](NC(=O)Nc2ccc(C(F)(F)F)cc2)[C@@H](CO)O1)NCc1cc(F)cc(F)c1 do in these assays?
Vaccinia stage: -6; Vaccinia stage Venus: -12

Results for CC(C)NC(=O)Nc1ccc2c(c1)C(=O)N([C@@H](C)CO)C[C@@H](C)[C@H](CN(C)C(=O)C1CCCCC1)OCCCC[C@H](C)O2 ?
Vaccinia stage: 0; Vaccinia stage Venus: -7

Results for O=C(C1CCOCC1)N1CC2(C1)[C@H](c1ccccc1)[C@H](CO)N2Cc1ccc(Cl)cc1 ?
Vaccinia stage: 14; Vaccinia stage Venus: 11

Results for O=C(CCN1CCCCC1)NCC[C@@H]1CC[C@@H](NC(=O)Cc2cccnc2)[C@@H](CO)O1 ?
Vaccinia stage: 7; Vaccinia stage Venus: 0

What do the screens show for `C[C@@H]1CN([C@H](C)CO)C(=O)Cc2cc(NC(=O)Cc3ccccc3)ccc2O[C@H]1CN(C)CC1CC1`?
Vaccinia stage: 6; Vaccinia stage Venus: -5

Results for CO[C@@H]1CN(C)C(=O)c2ccc(NC(=O)Nc3ccccc3)cc2OC[C@@H](C)N(C(=O)Nc2c(C)noc2C)C[C@@H]1C ?
Vaccinia stage: -1; Vaccinia stage Venus: -1

Results for COCC(=O)Nc1ccc2c(c1)C(=O)N(C)C[C@H](OC)[C@H](C)CN(Cc1cccnc1)[C@@H](C)CO2 ?
Vaccinia stage: 8; Vaccinia stage Venus: 3

How did COc1ccc(-c2cn(C[C@@H](Cc3ccccc3)NC(=O)Nc3ccccc3)nn2)cc1OC do in these assays?
Vaccinia stage: 6; Vaccinia stage Venus: 0

Results for C[C@@H]1CN([C@@H](C)CO)C(=O)c2cc(NS(=O)(=O)c3cn(C)cn3)ccc2O[C@H]1CN(C)C ?
Vaccinia stage: 12; Vaccinia stage Venus: 0

Results for O=C(Cc1ccccn1)N1CC(=O)N2[C@H](CO)[C@H](c3ccc(C#CC4CC4)cc3)[C@H]2C1 ?
Vaccinia stage: 5; Vaccinia stage Venus: -1

How did O=C(C[C@H]1C[C@H]2c3cc(NS(=O)(=O)c4ccc(F)cc4)ccc3O[C@H]2[C@@H](CO)O1)NCc1ccc(Cl)cc1 do in these assays?
Vaccinia stage: -10; Vaccinia stage Venus: -7

Results for O=C(O)C1=C[C@@H](c2csc3ccccc23)C[C@@H](OCc2ccc(CO)cc2)O1 ?
Vaccinia stage: 13; Vaccinia stage Venus: 17

How did Cc1noc(C)c1S(=O)(=O)Nc1ccc2c(c1)C(=O)N([C@H](C)CO)C[C@@H](C)[C@@H](CN(C)S(=O)(=O)c1ccc(Cl)cc1)OCCCC[C@@H](C)O2 do in these assays?
Vaccinia stage: -2; Vaccinia stage Venus: -8

Results for C[C@H](CO)N1C[C@H](C)[C@@H](CN(C)Cc2ccc(Oc3ccccc3)cc2)Oc2ccc(NS(=O)(=O)c3ccccc3)cc2C1=O ?
Vaccinia stage: inconclusive

What do the screens show for `COCC(=O)N1C[C@H](C)[C@H](OC)CN(C)C(=O)c2cc(NC(=O)c3cc(C)on3)ccc2OC[C@@H]1C`?
Vaccinia stage: -3; Vaccinia stage Venus: 3

Results for C[C@@H]1CN([C@H](C)CO)C(=O)c2cccc(NC(=O)C3CCOCC3)c2O[C@H]1CN(C)C ?
Vaccinia stage: -17; Vaccinia stage Venus: -17

What do the screens show for `O=C(NCCc1ccccc1)[C@H]1N[C@H]2c3ccc(-c4ccc(F)cc4)c(=O)n3C[C@H]2[C@@H]1CO`?
Vaccinia stage: 15; Vaccinia stage Venus: 15

What do the screens show for `O=C(c1ccccc1F)N1CC[C@@H]2[C@H](CO)Nc3ccc(-c4ccccc4)cc3[C@@H]21`?
Vaccinia stage: -19; Vaccinia stage Venus: -8

How did O=C(C[C@@H]1C[C@@H]2c3cc(NS(=O)(=O)c4ccc(F)cc4)ccc3O[C@@H]2[C@H](CO)O1)NCC(F)(F)F do in these assays?
Vaccinia stage: 18; Vaccinia stage Venus: 7

Results for C[C@H](CO)N1C[C@H](C)[C@H](CN(C)CC2CC2)Oc2ncc(-c3cccc(C(=O)N(C)C)c3)cc2C1=O ?
Vaccinia stage: 6; Vaccinia stage Venus: 8

Results for CC(C)NC(=O)N(C)C[C@@H]1OCCCC[C@@H](C)Oc2ccc(NC(=O)C3CCCCC3)cc2C(=O)N([C@H](C)CO)C[C@H]1C ?
Vaccinia stage: 5; Vaccinia stage Venus: -7

What do the screens show for `CCCC#Cc1ccc([C@@H]2[C@H]3CN(C(=O)c4ccccn4)CC(=O)N3[C@H]2CO)cc1`?
Vaccinia stage: 20; Vaccinia stage Venus: 3

Results for COc1ccc(S(=O)(=O)N(C)C[C@H]2Oc3c(NC(=O)C4CC4)cccc3C(=O)N([C@H](C)CO)C[C@@H]2C)cc1 ?
Vaccinia stage: 10; Vaccinia stage Venus: 15

How did COc1cccc(NC(=O)N[C@@H]2CC[C@@H](CC(=O)N3CCN(C)CC3)O[C@@H]2CO)c1 do in these assays?
Vaccinia stage: 20; Vaccinia stage Venus: 15

Results for C[C@@H]1CN([C@H](C)CO)C(=O)Cc2cc(NC(=O)C3CC3)ccc2O[C@H]1CN(C)Cc1ccc(C(F)(F)F)cc1 ?
Vaccinia stage: inconclusive

How did CO[C@H](CN(C)C(=O)c1cnccn1)[C@H](C)CN([C@@H](C)CO)S(=O)(=O)c1ccc(Cl)cc1 do in these assays?
Vaccinia stage: 6; Vaccinia stage Venus: 8

Results for C[C@@H]1CN([C@@H](C)CO)C(=O)c2cc(C#Cc3ccncc3)cnc2O[C@@H]1CN(C)CC1CCOCC1 ?
Vaccinia stage: 12; Vaccinia stage Venus: 9

Results for CCCN1[C@H](C(=O)NCC)[C@@H](CO)[C@@H]2Cn3c(ccc(/C=C/c4ccccc4)c3=O)[C@@H]21 ?
Vaccinia stage: -10; Vaccinia stage Venus: -4

Results for COC(=O)C[C@@H]1CC[C@@H](NC(=O)Nc2ccc(C(F)(F)F)cc2)[C@@H](CO)O1 ?
Vaccinia stage: -6; Vaccinia stage Venus: -7

Results for CCC(=O)N1[C@H](CO)[C@@H](c2ccccc2)C12CN(CCC(F)(F)F)C2 ?
Vaccinia stage: -2; Vaccinia stage Venus: -3

How did C[C@@H]1CN([C@@H](C)CO)S(=O)(=O)c2ccc(C#C[C@@H](C)O)cc2O[C@H]1CN(C)C(=O)c1ccccc1 do in these assays?
Vaccinia stage: 9; Vaccinia stage Venus: -3

Results for C[C@@H](NC(=O)C[C@H]1C=C[C@H](NC(=O)C2CCOCC2)[C@H](CO)O1)c1ccccc1 ?
Vaccinia stage: 14; Vaccinia stage Venus: 10

How did C[C@@H]1CCCCO[C@H](CN(C)Cc2ccc(Cl)c(Cl)c2)[C@H](C)CN([C@@H](C)CO)C(=O)c2cc(NC(=O)Nc3ccc(F)cc3)ccc2O1 do in these assays?
Vaccinia stage: -30; Vaccinia stage Venus: -16

What do the screens show for `C[C@@H]1CCCCO[C@H](CN(C)C(=O)CCCN(C)C)[C@@H](C)CN([C@@H](C)CO)C(=O)c2cc(NC(=O)CCCN(C)C)ccc2O1`?
Vaccinia stage: 15; Vaccinia stage Venus: 8

What do the screens show for `CC(=O)N[C@H]1CC[C@H](CCNC(=O)C2CCCC2)O[C@@H]1CO`?
Vaccinia stage: -1; Vaccinia stage Venus: 12

What do the screens show for `CC(C)CC#Cc1cnc2c(c1)C(=O)N([C@H](C)CO)C[C@@H](C)[C@H](CN(C)Cc1cncnc1)O2`?
Vaccinia stage: 8; Vaccinia stage Venus: 9

How did COc1ccc(S(=O)(=O)N(C)C[C@H]2OCCCC[C@@H](C)Oc3ccc(N(C)C)cc3C(=O)N([C@H](C)CO)C[C@H]2C)cc1 do in these assays?
Vaccinia stage: -11; Vaccinia stage Venus: -12

Results for O=C(N[C@@H]1CC[C@H](CCNC(=O)C2CC2)O[C@H]1CO)c1ccncc1 ?
Vaccinia stage: 1; Vaccinia stage Venus: 7

Results for CC(C)NC(=O)Nc1ccc2c(c1)C(=O)N([C@@H](C)CO)C[C@@H](C)[C@H](CN(C)C)OCCCC[C@@H](C)O2 ?
Vaccinia stage: 30; Vaccinia stage Venus: 14

Results for COc1ccc(NC(=O)Nc2cccc3c2O[C@@H](CN(C)Cc2ccc4c(c2)OCO4)[C@H](C)CN([C@@H](C)CO)C3=O)cc1 ?
Vaccinia stage: -6; Vaccinia stage Venus: -2

How did CCCNC(=O)N(C)C[C@@H]1Oc2ncc(C#CC3(O)CCCC3)cc2C(=O)N([C@@H](C)CO)C[C@H]1C do in these assays?
Vaccinia stage: 4; Vaccinia stage Venus: 10

Results for COC(=O)C[C@@H]1C[C@@H]2c3cc(NS(C)(=O)=O)ccc3O[C@@H]2[C@@H](CO)O1 ?
Vaccinia stage: -3; Vaccinia stage Venus: 0

How did C[C@H]1CCCCO[C@H](CN(C)S(=O)(=O)c2cccs2)[C@@H](C)CN([C@@H](C)CO)C(=O)c2cc(NC(=O)Nc3ccccc3)ccc2O1 do in these assays?
Vaccinia stage: -9; Vaccinia stage Venus: 0

What do the screens show for `CCCc1cn(CC[C@@H]2CC[C@@H](NS(=O)(=O)c3ccccc3Cl)[C@H](CO)O2)nn1`?
Vaccinia stage: 8; Vaccinia stage Venus: 2
